# Screening results deposited in PubChem by several laboratories.
# PrP UTR inh: inhibition of PrP 5' UTR reporter expression. inhibition, % (concentration not given with the values). AID 488862, 2010. cell-based PrP 5' UTR mRNA reporter, plate reader. 340,000 tested, 0.35% active;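 active = every replicate at 50% or more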;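 also: 0 = median of the neutral control wells; tested in H4 reporter cells; numbers are from one replicate; inactives centre near -14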
# Autofluor counter: compound fluorescence in toxin protease inhibitor counterscreen; compound autofluorescence counterscreen, microsphere flow cytometry; active compounds read high; fluorescence intensity (test concentration not listed); 360,000 tested, 3.1% active; AID 624483;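 active = at least 3 SD above the mean of all compounds, about 16000 in these data; inconclusive = too few beads counted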;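 also: 100 nL of 1 mM stock went into each well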
# RN4220 kill: growth inhibition of S. aureus RN4220, primary screen, OD600. inhibition, % (concentration not given with the values). AID 1259311, 2017. 16 h. 330,000 tested, 0.33% active;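 active = z-score of -3 or lower and OD600 up to 0.18 on both plates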;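 also: plate controls were untreated cells for no effect and reference antibiotic for full effect; stock transfer was 100 nL into about 80 µL; one replicate is shown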
# BJeLR lethal: MLPCN primary cell-based screen for lethality selective to Ras in HRASV12 cells; BJeLR (HRASV12) viability, CellTiter-Glo ATP luminescence, 48 h; reference of the scale not given here; inhibition, % (no concentration beside the values); 300,000 tested, 0.17% active;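 active = replicate mean above 50%; inconclusive = above 50% but judged a plate artefact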;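 also: 50 nL library stock added to about 25 µL; numbers are from one replicate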
# Mtb hypoxia rep: PubChem AID 1159583 | fluorescence inhibition, % (no concentration beside the values) | 300,000 tested, 0.1% active | M. tuberculosis hypoxia-regulated fluorescent reporter, fluorescence;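 active = 35 to 45% if threefold the growth effect, above 45% if 1.5-fold the growth effect; inactive = the rest, general growth blockers included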;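 also: wells of about 50 µL received 100 nL stock; 0% = vehicle wells and 100% = reference inhibitor wells; whole bacteria with a GFP reporter of the hypoxia response; strong numbers were not always called active; many hits fall short of the cut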
# ugtP null kill: growth inhibition of ugtP-null S. aureus, primary screen, RN4220 ugtP deletion, OD600; 16 h; some inactives read as strong as hits; growth inhibition, % (no concentration beside the values); 330,000 tested, 0.54% active; AID 1259309, 2017;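 active = z-score under -3 and OD600 up to 0.15 on both plates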;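 also: plate controls were untreated wells for no effect and antibiotic for full effect; wells of about 80 µL received 100 nL stock; the first replicate is given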
# Mtb hypoxia rep growth: second read-out of Mtb hypoxia rep, no call of its own (marks repeat the call); growth inhibition, %; measured here: M. tuberculosis growth (absorbance);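 0% = vehicle and 100% = reference antibiotic; read after six days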
# The depositor's hits bear a star; ? = inconclusive; / = no result given.
SMILES,PrP UTR inh,Autofluor counter,RN4220 kill,BJeLR lethal,Mtb hypoxia rep,Mtb hypoxia rep growth,ugtP null kill
O/N=C/c1ccnc(SCc2ccc(Cl)cc2)n1,-108.2,4294,/,-6.3,/,/,/
CCCCOc1ccc(C2CC(=O)N(C)C2=O)cc1 (stereo unspecified),-7.1,2468,7.7,4.3,13.2,2.9,3.9
CCN(CC)C(=O)CSc1nc2c(sc(=S)n2-c2ccccc2)c(=O)n1-c1ccc(OC)c(OC)c1,-7.2,3624,-0.4,-8.2,-6.8,8.5,3.0
Cn1c(=O)[nH]c(=O)c2c1nc(Sc1nc3ccccc3s1)n2Cc1ccccc1,-14.8,2988,9.3,4.7,6.1,7.8,1.2
CCOc1ccccc1Nc1nc2ccccc2n2cnnc12,-17.3,4075,1.1,-11.7,4.9,8.5,4.4
CC(=NNC(=O)CN(c1ccccc1)S(=O)(=O)c1ccccc1[N+](=O)[O-])C(C)(C)C,/,/,11.0,/,5.1,4.7,-18.2
O=c1cc(COc2ncnc3ccccc23)nc2sccn12,-12.1,6501,-0.3,4.5,10.2,3.5,-1.5
COc1ccc(CNS(=O)(=O)c2cccc(S(=O)(=O)N3CCOCC3)c2)cc1,-18.2,9168,3.4,-7.9,-4.5,4.1,3.1
Cc1ccc(S(=O)(=O)N2CC(O)C[C@H]2C(=O)OCC(=O)Nc2ccc(N3CCOCC3)cc2)cc1C (stereo partly specified),-4.1,5752,4.0,/,3.3,2.9,-4.3
CC(C)n1cc(CN2CCC(C(=O)Nc3ccc(Oc4ccccc4F)cc3)CC2)cn1,-1.3,5764,-1.9,12.9,-9.4,6.2,-2.8
Cc1cc(C)c(S(=O)(=O)N2CCCC2=O)cc1N(C)S(C)(=O)=O,-16.0,3729,-1.9,-8.7,11.6,-4.4,5.9
CCOC(=O)C1(CCCc2ccccc2)CCN(C(=O)c2cc(C)nn2CC)CC1,-13.5,5284,2.3,-0.3,-1.4,-6.9,3.1
O=C(c1ncc[nH]1)c1ccccc1Cl,-10.0,3881,1.3,10.0,-5.0,1.8,-0.4
O=C(Cn1cccn1)N1CCCC(N2CCN(Cc3ccc4c(c3)OCO4)CC2)C1 (stereo unspecified),-24.6,5050,/,-0.9,/,/,/
COc1ccc(/C=C/C(=O)Nc2c(C)nn(C)c2C)cc1COc1ccc(Br)cc1,4.8,8733,5.6,-2.4,2.7,9.0,8.3
COc1ccc(C(=O)Nc2ccccc2C(=O)NN=Cc2cccc3ccccc23)cc1,/,/,-8.2,/,3.9,22.9,45.1
O=C(Oc1cccc2cccnc12)c1cccc([N+](=O)[O-])c1,-0.4,2089,22.3,0.8,-1.6,1.0,37.4
COc1ccc(C2NC(=O)NC(C)=C2C(=O)OC2CCCC(C)C2)cc1 (stereo unspecified),-4.0,3552,1.1,0.9,2.3,10.9,11.8
Cc1ccc(C)c(N2CCN(S(=O)(=O)c3ccc(-c4cc(C)no4)s3)CC2)c1,-16.2,5163,-2.2,-3.9,0.5,-2.7,1.1
Cn1c(O)c(N=NC(=O)c2cc(-c3cccs3)nc3ccccc23)c2ccccc21,-22.2,8079,7.5,-8.1,6.3,6.9,-23.6
Nc1ccccc1C(=O)NNC1=C(C(=O)C(F)(F)F)CCC1,-63.4,/,-2.1,2.1,4.8,1.5,51.9
CCc1ccc(CN(C)Cc2nc(COc3ccccc3)no2)nc1,-39.1,3957,5.2,-40.1,8.6,-1.2,3.5
Cc1ccc(S(=O)(=O)Cc2ccc(C(=O)NCc3cccs3)o2)cc1,-5.3,3992,4.4,-4.8,7.5,11.1,4.0
COc1ccc(S(=O)(=O)N2N=C(c3ccc(NS(C)(=O)=O)cc3)CC2c2ccco2)cc1 (stereo unspecified),4.3,3719,2.9,10.2,14.3,1.8,3.0

# 4 entries from above, set out differently:
Molecule: CC(=NNC(=O)CN(c1ccccc1)S(=O)(=O)c1ccccc1[N+](=O)[O-])C(C)(C)C
- PrP UTR inh = /
- Autofluor counter = /
- RN4220 kill = 11.0
- BJeLR lethal = /
- Mtb hypoxia rep = 5.1
- Mtb hypoxia rep growth = 4.7
- ugtP null kill = -18.2

Molecule: O=c1cc(COc2ncnc3ccccc23)nc2sccn12
- PrP UTR inh = -12.1
- Autofluor counter = 6501
- RN4220 kill = -0.3
- BJeLR lethal = 4.5
- Mtb hypoxia rep = 10.2
- Mtb hypoxia rep growth = 3.5
- ugtP null kill = -1.5

Molecule: COc1ccc(CNS(=O)(=O)c2cccc(S(=O)(=O)N3CCOCC3)c2)cc1
- PrP UTR inh = -18.2
- Autofluor counter = 9168
- RN4220 kill = 3.4
- BJeLR lethal = -7.9
- Mtb hypoxia rep = -4.5
- Mtb hypoxia rep growth = 4.1
- ugtP null kill = 3.1

Molecule: Cc1ccc(S(=O)(=O)N2CC(O)C[C@H]2C(=O)OCC(=O)Nc2ccc(N3CCOCC3)cc2)cc1C (stereo partly specified)
- PrP UTR inh = -4.1
- Autofluor counter = 5752
- RN4220 kill = 4.0
- BJeLR lethal = /
- Mtb hypoxia rep = 3.3
- Mtb hypoxia rep growth = 2.9
- ugtP null kill = -4.3

# The list continues.
SMILES,PrP UTR inh,Autofluor counter,RN4220 kill,BJeLR lethal,Mtb hypoxia rep,Mtb hypoxia rep growth,ugtP null kill
Cc1ccc(S(=O)(=O)c2ccc(Cl)cc2)cc1S(=O)(=O)NC(C)C(=O)O (stereo unspecified),-8.0,2042,5.6,-0.6,7.5,6.5,1.9
C=CCN1C(=O)[C@@H]2Cc3c([nH]c4ccccc34)C(c3ccc(O)cc3)N2C1=S (stereo partly specified),-21.8,3722,8.8,-0.7,-0.4,-0.3,0.7
COc1ccccc1N1CCN(Cc2ccc(Br)cc2)CC1,-35.0,3715,-5.3,-7.3,4.3,-1.0,27.6
CCOc1ncccc1C(=O)NC(C)CCc1ccccc1 (stereo unspecified),-12.2,5557,4.4,-7.1,16.7,7.5,6.0
O=C(CCC1CCCC1)Nc1ccc([N+](=O)[O-])cn1,-35.3,2090,2.2,-8.0,5.5,5.6,5.5
COc1cc([C@@H]2C[C@H]3CN(c4ccccc4)C(=O)[C@]34CCCN24)cc(OC)c1OC,-26.1,9522,0.9,2.1,-9.8,-9.3,-1.0
O=C1CC(N2CCC(c3nc4ccccc4o3)CC2)C(=O)N1Cc1cccs1 (stereo unspecified),-15.7,5699,0.0,-4.2,/,/,-2.3
COc1ccccc1NC(=O)Cn1cnc2sc(C(=O)NCc3ccco3)c(C)c2c1=O,-10.1,2421,-2.2,-8.3,/,/,-3.3
CCc1nnc(NC(=O)c2ccc(S(=O)(=O)N3CCCC(C)C3)cc2)s1 (stereo unspecified),-59.7,5733,0.3,-7.1,3.3,11.1,4.4
Cc1ccc(C2CC(=O)Nc3c2ccc2ccccc32)cc1[N+](=O)[O-] (stereo unspecified),-3.3,2251,/,-12.9,/,/,/
COc1ccc(Cl)c(N2CCN(CCCNC(=O)Nc3ccc(C)cc3)CC2)c1,-15.5,4589,-1.7,4.1,/,/,1.7
COc1ccc(NC(=O)c2ccc3nccnc3c2)cc1,-53.1,3492,-7.8,1.5,5.6,11.8,-5.4
c1ccc(C(c2ccccc2)N2CCN(Cc3nnnn3C3CCCCC3)CC2)cc1,2.4,7024,-1.5,12.6,4.8,2.3,-4.7
COc1cc2cc(C(c3nnnn3C3CCCC3)N(C)C3CCCCC3)c(=O)[nH]c2cc1OC (stereo unspecified),-16.3,21407*,5.8,-11.2,-1.6,7.7,5.1
CCCC(C(=O)NC(C)(C)C)N(CC1CCCO1)C(=O)c1snc(C(N)=O)c1N (stereo unspecified),-14.5,2499,7.0,-9.4,0.5,-4.2,-1.7
Cc1cc(NC(=O)CSCC(=O)Nc2ccc(Cl)c(C(F)(F)F)c2)no1,-12.7,4530,5.8,4.5,1.9,5.4,-8.6
COC(=O)[C@@H]1CCCN1C(=O)CCc1nnc(C2CCCCC2)o1,-48.9,4838,-3.5,2.6,-8.4,6.9,-1.6
CSc1ccc(CNC(C)(C)CO)cc1,-35.4,4397,7.8,7.8,13.4,8.0,5.7
O=C(O)CCSc1nnc(COc2cccc3cccnc23)n1-c1ccccc1,-19.6,4611,2.7,2.3,11.6,-6.4,6.7
O=C1c2ccccc2C(=O)N1CCSC(=S)N1CCOCC1,-59.0,12759,3.1,5.4,2.6,4.6,-3.9
CNC(=O)[C@@H]1C[C@H]1[C@@H](NC(=O)OCc1ccccc1)c1ccccc1,-9.8,3681,/,0.8,/,/,/
CCN1C2=C(C(=O)CCC2)C(c2ccc(O)cc2)C2=C1CCCC2=O,-8.4,9077,4.2,-3.3,10.1,4.5,4.9
O=C1C2C3CCC(C3)C2C(=O)N1c1ccc2ccccc2c1 (stereo unspecified),-34.1,3417,6.0,-1.6,18.4,11.8,9.8
CCOC(=O)C(Sc1cc(C)nc(N)n1)C(C)=O (stereo unspecified),-5.0,4680,6.3,11.0,/,/,5.7
CCc1ccc(-c2nc(SCC(=O)NC3CC3)n[nH]2)cc1,-14.2,5941,3.2,-11.4,10.3,-1.5,-0.2
COC(=O)c1ccc(NC(=O)Nc2cccc(F)c2)cc1,-115.7,2822,-6.2,-8.7,-4.5,1.4,-27.1
S=C(NCCc1ccccc1)N/N=C/c1ccccc1Cl,-1.7,1960,/,-3.3,/,/,/
CC(C)(C)S(=O)(=O)c1cnc2c(-c3ccsc3)cnn2c1N,-88.6,3804,7.4,7.1,10.9,9.0,7.8
CCCCc1oc2c(c(=O)c1C)C(=O)CC(c1ccccc1)C2 (stereo unspecified),-2.2,7182,3.7,-6.5,-1.6,-6.2,-11.5
Cc1nc2ccc(NC(=O)CCS(=O)(=O)c3ccc(Cl)cc3)cc2s1,2.4,2463,1.1,-0.4,4.7,9.8,24.1
C=CCC(C(=O)OC)(C(=O)OC)c1ccc([N+](=O)[O-])cc1[N+](=O)[O-],-27.7,3779,8.1,-13.0,8.7,11.2,3.8
CC1=C(C(=O)OCC2CCCCC2)C(c2ccc(F)cc2)NC(=O)N1 (stereo unspecified),-15.8,3520,2.0,-7.6,12.8,-4.0,34.4
CCC1(C)Cc2c(sc3nnn(CC(=O)Nc4ccc(Cl)cc4)c(=O)c23)CO1 (stereo unspecified),-13.2,22722*,-1.1,0.4,1.7,-2.3,-8.2
N#Cc1cccc(NC(=O)CSc2ccccc2)c1,-10.3,8125,6.7,-2.8,-5.9,-4.9,5.6
CCCCCNc1c(C(=O)OCC)c(=O)[nH]c2ccccc12,-18.6,3896,5.4,-3.4,/,/,2.6
CN(Cc1ccccc1F)C(=O)CN1CCN(S(=O)(=O)c2ccc3c(c2)OCCCO3)CC1,-9.9,3048,3.3,/,4.1,-11.1,7.0
CCN(CC)CCCNC(=O)C1CCN(C(=O)c2cc3sccc3n2Cc2ccc(F)cc2)CC1,-21.9,10435,4.8,1.6,10.3,5.5,-0.9
O=C(CSc1nnnn1-c1ccccc1)Nc1ncc(Cc2ccccc2Cl)s1,-16.7,2496,4.8,-2.6,9.0,5.5,0.2
Cc1ccc(NC(=O)Cn2cccc2)cc1C,-13.5,15251,0.9,-0.4,1.7,8.2,-5.6
Cc1ccc(NC(=O)c2ccc3c(SCC(=O)O)c4c(nc3c2)CCCC4)c(Br)c1,-25.8,5462,10.3,-7.4,-0.9,3.8,-3.5
Oc1ccc(Nc2ncnc3ccccc23)cc1,16.7,?,2.4,-0.6,6.4,-3.5,-8.7
CCc1cc(=O)oc2c3c(cc(OCC(=O)NCCCOC)c12)OC(C)(C)CC3,0.5,5033,-0.4,10.9,9.7,9.4,-0.8
CC(=O)N1c2ccc(S(=O)(=O)NCCc3ccc(Cl)cc3)cc2CC1C (stereo unspecified),-33.5,/,7.3,2.7,-8.2,-6.9,5.0
CN1/C(=C\C(=S)NC(=O)c2ccc([N+](=O)[O-])cc2)C(C)(C)c2ccccc21,3.5,3798,3.1,-3.6,11.5,5.0,0.2
Cc1cccc(NC(=S)NC2CC3CCCC(C2)N3Cc2ccco2)c1 (stereo unspecified),-21.2,3423,5.7,-3.2,11.0,10.7,4.5
COc1ccc(/C=C2\SC(=S)N(NS(=O)(=O)c3ccc(C)cc3)C2=O)c(OC)c1,-2.7,3606,/,1.5,/,/,/
CCNC(=S)N1CCN(c2ccccc2OCC)CC1,-1.8,2004,-0.4,0.1,11.8,0.6,3.6
COc1ccc(N(CC(=O)Nc2nccs2)S(=O)(=O)c2c(C)[nH]c(=O)[nH]c2=O)cc1,-17.8,4107,7.2,2.9,1.0,-3.3,16.5
COc1cc(/C=C2/SC(=S)N(CC(=O)O)C2=O)ccc1OC(=O)c1cccs1,1.4,5485,7.4,6.1,7.3,2.9,2.4
